RecA splice inh – inhibitors of M. tuberculosis RecA intein splicing; cell-free RecA intein splicing, fluorescence; 290,000 tested, 0.75% active; inhibition, %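 (about 9 µM by stock and volumes)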; in the data active = inhibition above about 30%; inconclusive = no clear call, values can overlap the other calls;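 also: 0% = vehicle wells and 100% = reference inhibitor control wells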
Target sequence (P9WHJ3 whole entry, looked up, canonical isoform): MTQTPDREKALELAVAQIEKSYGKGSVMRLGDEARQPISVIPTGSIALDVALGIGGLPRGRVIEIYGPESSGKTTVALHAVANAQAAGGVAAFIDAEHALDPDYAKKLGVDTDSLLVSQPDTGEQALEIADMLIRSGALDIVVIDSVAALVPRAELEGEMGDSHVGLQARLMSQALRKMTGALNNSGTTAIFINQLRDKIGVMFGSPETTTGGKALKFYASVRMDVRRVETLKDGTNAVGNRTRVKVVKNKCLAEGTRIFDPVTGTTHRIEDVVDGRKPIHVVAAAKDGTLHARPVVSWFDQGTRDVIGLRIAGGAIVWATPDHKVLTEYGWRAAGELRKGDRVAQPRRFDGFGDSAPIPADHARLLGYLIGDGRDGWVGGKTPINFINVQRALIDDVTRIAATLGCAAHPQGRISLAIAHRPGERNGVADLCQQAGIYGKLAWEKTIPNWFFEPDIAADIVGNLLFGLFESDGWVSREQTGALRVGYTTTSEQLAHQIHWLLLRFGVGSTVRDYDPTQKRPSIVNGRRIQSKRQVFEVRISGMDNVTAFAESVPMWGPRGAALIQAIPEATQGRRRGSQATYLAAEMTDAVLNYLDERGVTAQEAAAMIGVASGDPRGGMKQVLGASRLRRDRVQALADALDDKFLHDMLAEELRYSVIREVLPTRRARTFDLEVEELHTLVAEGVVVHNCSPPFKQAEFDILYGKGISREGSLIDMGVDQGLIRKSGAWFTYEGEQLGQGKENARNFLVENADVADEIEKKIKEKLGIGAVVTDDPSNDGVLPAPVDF
YopH inh – inhibitors of Yersinia enterocolitica YopH tyrosine phosphatase; fluorescence Ex485/Em525; inhibition, %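 (about 10 µM by stock and volumes)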; 140,000 tested, 0.16% active;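 active = inhibition of 50% or more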;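 also: controls were vehicle for no effect and minimum signal wells for full effect; inactives centre near -20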
Mtb growth – M. tuberculosis H37Rv growth inhibitors, H37Rv strain (AID 1626); M. tuberculosis H37Rv growth inhibition; higher % means a stronger effect; inhibition, % at 10 µM; hits with a dose series show IC50 in µM; 220,000 tested, 0.95% active;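 active = confirmed in a dose series; inconclusive = inhibition above 80% but not taken into the dose series; inactive = below 80% or under 30% at every dose of the series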;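 also: bacteria incubated seven days before Alamar blue readout; 0% = bacteria only wells and 100% = bacteria with antibiotic wells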
Arbovirus inh – blocks arbovirus infection | arbovirus infection cell-based antiviral screen | inhibition, % at 10 µM | 200,000 tested, 0.37% active | AID 1251;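 active = inhibition from about 30%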;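 also: bluetongue infection of BSR cells; cell survival read as ATP light after 72 h; 0% = infected wells without compound and 100% = uninfected wells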
Mtb bLac sens – beta-lactam sensitization of Mtb H37Rv | M. tuberculosis H37Rv growth with meropenem, percent inhibition; hits of this screen are not shown here | 330,000 tested, 0.27% active | inhibition, % at 25 µM;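 active = about 74% or more and at least 40 points above the plate without the antibiotic, then above 30% in a dose series; inconclusive = first-round hits that could not be retested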;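 also: growth measured after seven days incubation then overnight dye step; 0% = bacteria only wells and 100% = bacteria with antibiotic; twin plates without the antibiotic show which effects depend on it; some results filed as inactive read as strong as hits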
Arbovirus inh repeat – second read-out of Arbovirus inh, no call of its own (marks repeat the call); inhibition, %; measured here: 10K subset replicate screen; many hits read low in the repeat;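 first of two repeat runs on a subset; 0% = infected and 100% = uninfected wells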
The depositor's hits bear a star; ? = inconclusive; . = no result given; & = joins results of further samples.

SMILES | RecA splice inh | YopH inh | Mtb growth | Arbovirus inh | Mtb bLac sens | others
COc1cc(/C=C/C(=O)O)ccc1OS(=O)(=O)c1cc(C)ccc1C | 2.3 | . | 4.1% | 2.5 | -3.1
C/C(CC(=O)Nc1ccc([N+](=O)[O-])cc1)=N/NC(=O)C1C2CCCCC21 (stereo not given) | 4.3 | . | 2.1% | . | -5.7
CC(C)(C)c1ccc(Cn2nc(CC(=O)O)c3ccccc3c2=O)cc1 | -4.7 | . | -10.9% | 2.4 | -0.8
O=C(Cc1ccc(Br)cc1)OCC(=O)N1CCc2ccccc2C1 | 0.8 | 2.4 | 11.0% | 6.5 | 2.2
CN1CCN(S(=O)(=O)c2cccc(C(=O)Nc3ccc(Br)cc3Br)c2)CC1 | 5.4 | . | . | . | 0.6
COc1ccc(NC(=O)Nc2ccc(Br)cn2)cc1 | . | . | 4.8% | 0.4 | 6.1
O=C(NC1CCN(S(=O)(=O)c2ccc(F)cc2)CC1)c1cccnc1 | 2.2 | . | . | . | -3.5
CC(C)c1ccc(N2C(=O)CC(NNC(=O)c3cccnc3)C2=O)cc1 (stereo not given) | -2.5 | . | -0.2% | . | 3.0
CC(=O)Oc1ccc2ccccc2c1C(NC(=O)C(C)C)c1cccc([N+](=O)[O-])c1 (stereo not given) | 19.1 | -8.7 | 0.2% | 4.9 | -5.2
CC1CC(C)CN(c2ccc([N+](=O)[O-])cc2-c2nn[nH]n2)C1 (stereo not given) | 2.3 | -16.8 | 0.4% | -4.7 | -0.4
CN1CCN(C(=O)CCS(=O)(=O)c2cc3c(cc2Cl)NC(=O)CO3)CC1 | -0.8 | . | . | . | -8.3
CCOc1cc(/C=C2/SC(=S)N(CC(=O)O)C2=O)ccc1OC(=O)c1cccs1 | 16.1 | . | -1.5% | . | 2.3
CC(=O)Nc1ccc(NC(=O)CSc2nnc(C)n2-c2ccccc2)cc1 | 0.2 | . | . | . | -1.8
Cc1ccnc(NS(=O)(=O)c2ccc(NC(=O)c3ccc(Cl)cc3[N+](=O)[O-])cc2)n1 | 2.2 | . | . | . | -1.7
COc1cccc(-n2c(SCC(=O)N3c4ccccc4CC3C)nnc2-c2ccco2)c1 (stereo not given) | . | -5.7 | -0.6% | 4.8 | 24.6
Cn1nc(C(=O)N2CCOCC2)c([N+](=O)[O-])c1C(=O)N1CCOCC1 | -1.3 | -21.7 | 4.9% | 0.5 | -1.4
O=C(COc1nncc2ccccc12)NCCC1=CCCCC1 | 0.6 | -11.5 | -6.8% | -0.8 | -4.9
CC(=O)Nc1ccc(OC(=O)COc2ccc(Br)cc2)cc1 | 3.4 | -39.2 | 3.3% | 1.2 | -4.4
COc1cc(C(=O)N2CCN(C(=O)c3cc(-c4ccc(Br)cc4)n[nH]3)CC2)cc(OC)c1OC | 4.6 | . | . | . | -0.4
C=CCn1c(SCC(=O)NCC2CCCO2)nnc1C1CCCCC1 (stereo not given) | 1.1 | -10.7 | -6.2% | 1.3 | -3.5

4 structures from above, arranged by length of the SMILES, largest number first:
SMILES | RecA splice inh | YopH inh | Mtb growth | Arbovirus inh | Mtb bLac sens | others
CC1CC(C)CN(c2ccc([N+](=O)[O-])cc2-c2nn[nH]n2)C1 (stereo not given) | 2.3 | -16.8 | 0.4% | -4.7 | -0.4
CC(C)c1ccc(N2C(=O)CC(NNC(=O)c3cccnc3)C2=O)cc1 (stereo not given) | -2.5 | . | -0.2% | . | 3.0
CC(=O)Nc1ccc(NC(=O)CSc2nnc(C)n2-c2ccccc2)cc1 | 0.2 | . | . | . | -1.8
O=C(COc1nncc2ccccc12)NCCC1=CCCCC1 | 0.6 | -11.5 | -6.8% | -0.8 | -4.9

For reference, 2 of the compounds above:
SMILES | RecA splice inh | YopH inh | Mtb growth | Arbovirus inh | Mtb bLac sens | others
COc1cc(/C=C/C(=O)O)ccc1OS(=O)(=O)c1cc(C)ccc1C | 2.3 | . | 4.1% | 2.5 | -3.1
C/C(CC(=O)Nc1ccc([N+](=O)[O-])cc1)=N/NC(=O)C1C2CCCCC21 (stereo not given) | 4.3 | . | 2.1% | . | -5.7

Continuation.
SMILES | RecA splice inh | YopH inh | Mtb growth | Arbovirus inh | Mtb bLac sens | others
O=C1CN(C(=O)c2cc3ccccc3oc2=O)C(c2ccc(F)cc2)c2cc(F)ccc2N1 (stereo not given) | 2.7 | -34.3 | . | -7.7 | -14.0
CCC(=O)Nc1nc2c(OC)ccc(C)c2s1 | -4.2 | -43.0 | -6.6% | 4.2 | -1.7 | Arbovirus inh repeat=-3.3
COC(=O)c1cn(NC(=O)c2ccc(OC)c(OC)c2)c(=O)c2ccccc12 | -0.5 | -23.4 | -6.9% | -16.9 | -3.9
CCCC(C)C1(CC)C(=O)NC(=Nc2ccc(F)cc2)NC1=O (stereo not given) | -0.7 | -25.2 | 0.9% | -6.5 | -4.1
COC(=O)/C=C/c1cnc2ccccc2c1 | . | . | 3.0% | -10.5 | -1.1
COc1ccc(Cn2cc3c(-c4ccc(F)cc4)nnc-3c3cc(OC)c(OC)cc32)cc1 | . | -40.0 | 64.8% | 8.1 | 1.6
Cc1ccc(C(c2sc3ncnn3c2O)N2CCC(C)CC2)cc1 (stereo not given) | 0.9 | -44.5 | 5.6% | 1.9 | -3.7 | Arbovirus inh repeat=4.9
Cc1ccc2nc3c(cc2c1)CC1(C(=O)N(C)C(=O)N(C)C1=O)C1COCCN31 (stereo not given) | 0.0 | -44.1 | 15.8% | -0.1 | 2.3
CC1=C(C(=O)OC(C)C)C(c2cccs2)N2C(=O)CCSC2=N1 (stereo not given) | -1.3 | -14.0 | -12.0% | -2.5 | ?
Cn1c(O)c(N=NC(=O)Cn2ccc(C(F)(F)F)n2)c2ccccc21 | 0.0 | -18.7 | -3.9% | -8.0 | -2.4
COC(=O)c1ccc(CSc2nc(C)nc3sc(C)c(C)c23)o1 | -3.0 | -22.5 | 0.3% | 5.5 | 24.3
CCOn1c(=O)c(=O)n(OCc2ccccc2)c2ccccc21 | -6.8 | 35.7 | -0.5% | 0.6 | -1.7 | Arbovirus inh repeat=5.0
CCC(C)(C)C1CCc2c(sc(NC(=O)c3cccs3)c2C(N)=O)C1 (stereo not given) | -7.9 | 8.0 | . | -3.1 | 13.1
COc1cc(CNC(C)(C)CO)cc(Br)c1OCc1ccccc1 | -2.6 | . | -4.4% | -37.9 | -2.7
COc1ccc(OC(=O)CCCN2C(=O)c3ccccc3C2=O)cc1 | 0.3 | 12.8 | -3.0% | -3.7 | 4.1
CSc1ncc(Cl)c(C(=O)Nc2cccc(C)c2)n1 | -1.0 | -36.4 | 8.4% | 2.6 | 1.3
Cc1ccc(S(=O)(=O)NC2=NCCCCC2)cc1 | 1.4 | -25.9 | 5.3% | 6.0 | -3.2
O=C1CN(C(=O)c2ccc(Cl)c([N+](=O)[O-])c2)c2ccccc2N1 | 1.9 | . | . | . | -0.2
CCOC(=O)C1CCN(S(=O)(=O)c2cn(C)c(=O)n(C)c2=O)CC1 | -0.3 | -28.7 | -1.0% | 2.1 | -6.2
O=C1NC(c2ccc(F)cc2)Oc2ccccc21 (stereo not given) | 0.1 | . | . | . | -5.8

Five records drawn at random from those above:
SMILES | RecA splice inh | YopH inh | Mtb growth | Arbovirus inh | Mtb bLac sens | others
CSc1ncc(Cl)c(C(=O)Nc2cccc(C)c2)n1 | -1.0 | -36.4 | 8.4% | 2.6 | 1.3
Cc1ccc(S(=O)(=O)NC2=NCCCCC2)cc1 | 1.4 | -25.9 | 5.3% | 6.0 | -3.2
COc1ccc(NC(=O)Nc2ccc(Br)cn2)cc1 | . | . | 4.8% | 0.4 | 6.1
COc1cc(CNC(C)(C)CO)cc(Br)c1OCc1ccccc1 | -2.6 | . | -4.4% | -37.9 | -2.7
CC(=O)Nc1ccc(NC(=O)CSc2nnc(C)n2-c2ccccc2)cc1 | 0.2 | . | . | . | -1.8

(list continues)
SMILES | RecA splice inh | YopH inh | Mtb growth | Arbovirus inh | Mtb bLac sens | others
CCN(CC)CCOCCOc1cc(C)c(Cl)c(C)c1 | -0.2 | -22.7 | 13.8% | -17.7 | 5.2
CN(C)/C=C(\C=O)c1ncc(C(F)(F)F)cc1Cl | -0.4 | . | -0.1% | -2.5 | -1.4
O=C(COc1ccc(Cl)cc1Cl)NCCCN1CCOCC1 | -5.7 | -34.8 | -3.2% | -0.2 | -0.4
C=CCOc1nc2c(c(=O)n(C)c(=O)n2C)n1Cc1ccccc1 | 3.5 | . | -1.1% | . | 1.8
CN(CCOC(=O)/C=C/c1ccccc1)C(C)(C)C | 5.4 | -5.4 | -1.3% | 1.7 | 5.9
Cc1onc(-c2ccccc2)c1C(=O)OCC(=O)Nc1ccc2c(c1)OCO2 | . | -34.5 | -3.2% | -6.0 | -0.9
CCOC(=O)C(CC)n1cnc2sc3c(c2c1=O)CCC3 (stereo not given) | 0.1 | -8.3 | -11.6% | 2.6 | -3.8
COCCCn1cn[nH]c1=S | -0.2 | . | -2.0% | 16.2 | -2.1
Cc1ccc(CN2C(=O)/C(=C\c3ccc(C(=O)NCc4cccnc4)cc3)Oc3ccccc32)cc1 | -9.2 | -36.9 | -11.7% | -14.6 | 13.3
CC(Oc1ccc(Cl)cc1)C(=O)N1CCCc2ccccc21 (stereo not given) | 3.0 | . | . | . | -6.9
Cc1nc(C)c(CCNC(=O)c2cccc(Cl)c2)s1 | -0.1 | -24.9 | 0.7% | -7.9 | 0.3
O=c1c2ccccc2nc2n1CCC2O (stereo not given) | 0.0 | . | -2.2% | 1.3 | -12.1
CCC1Oc2ccc(C)cc2N(CC(=O)NCc2cccc(OC)c2)C1=O (stereo not given) | -1.5 | -32.0 | -8.9% | 4.2 | 6.2
CC1Cn2c(nnc2-c2cccc(N)c2)S1 (stereo not given) | -0.6 | -22.2 | 4.3% | 12.6 | -1.0 | Arbovirus inh repeat=-2.1
COC(C)c1oc2c(C)c3oc(=O)cc(C)c3cc2c1C (stereo not given) | -2.1 | . | . | . | 5.7
O=C(CSc1nnc(-c2ccc(Cl)cc2)n1CC1CCCO1)NC1CCS(=O)(=O)C1 (stereo not given) | . | . | 0.3% | 2.7 | 3.0
O=C1NC[C@H](c2ccccc2)N(CC2CCCCC2)C1=O | -1.5 | . | -5.5% | . | -1.8
N#CCCN=C(NS(=O)(=O)c1ccccc1)c1ccccc1 | 2.2 | . | . | . | 8.3
COc1ccc2nc(NC(=O)C3CCN(S(=O)(=O)c4cccnc4)CC3)sc2c1 | 2.3 | -36.0 | 59.2% | 1.6 | -1.2
O=C(Nc1cccc2nsnc12)c1cccs1 | 3.4&-7.9 | -13.4&-35.9 | -0.3%&-6.5% | -6.3&2.6 | -0.9&-9.5
COC(=O)c1ccc(NC(=O)COc2ccc(S(=O)(=O)NC(C)(C)C)cc2)cc1 | -4.1 | . | -1.1% | 12.2 | -0.6
COc1cccc(CN(C)C(=O)c2[nH]c(C)c(C(C)=O)c2C)c1OC | 0.4 | . | . | . | -8.2
O[C@H]1COC2C1OC[C@@H]2O (stereo not given in full) | 1.7 | -32.2 | -4.0% | 5.1 | 0.3
Cc1cc(C)n(C(=O)CNC(=O)c2ccco2)n1 | -2.1 | -26.3 | 7.1% | 6.4 | 2.5
CC(=O)c1ccc(-c2ccc([C@H]3[C@H]4C=CC[C@@H](C)[C@@H]4C(=O)N3Cc3ccccc3)c(F)c2)cc1 | 3.7 | . | 69.3% | . | 96.7
O=c1oc2cc(OCc3ccc(C(F)(F)F)cc3)ccc2cc1-c1ccccn1 | -4.2 | 14.1 | 1.0% | -0.8 | 11.4
COc1cccc(-n2c(Cc3cc(=O)[nH]c(=O)[nH]3)nnc2SCc2cccc(C(F)(F)F)c2)c1 | -1.0 | . | -5.1% | 8.0 | -3.2
O=C(CNC(=O)c1cccc(F)c1)N/N=C/c1ccc(O)c([N+](=O)[O-])c1 | 0.8 | -13.1 | -7.5% | -7.8 | 0.5
CCC(C)NC(=O)C1CCCN(S(=O)(=O)c2ccc3c(c2)CC(C)N3C(C)=O)C1 (stereo not given) | -1.8 | . | . | . | 2.8
COc1ccccc1-n1nnnc1SCC(=O)NCC1CCCO1 (stereo not given) | 1.1 | . | . | . | -0.4
COc1ccc(C(=O)NCC(=O)OCC(=O)NCCC2=CCCCC2)cc1 | 1.8 | . | 1.2% | 5.2 | 3.1
NC(=O)C1CCCN(C(=O)CCc2nnc(C3(c4ccc(Cl)cc4)CCC3)o2)C1 (stereo not given) | 0.4 | . | . | . | 3.3
CCc1cc(C(=O)Nc2cc(Cl)ccc2N2CCN(C)CC2)sc1C | -1.2 | . | . | . | 63.1
CC(NC(=O)c1ccccc1Cl)C1CC2CCC1C2 (stereo not given) | -0.9 | . | . | . | 8.7
CCN(CC)C(=O)C(C(=O)c1cccc([N+](=O)[O-])c1)n1cc(Cl)ccc1=O (stereo not given) | 11.3 | . | 3.4% | -4.4 | 0.1
CC(C)(C)C(=O)N(Cc1ccccc1)c1ccccn1 | 7.4 | . | 1.5% | 2.9 | 1.8

An excerpt; rates above refer to the full screens.
